Screening data deposited in PubChem BioAssay by several laboratories.
HSV replic up – increases HSV replication in cells; HSV replication augmentation in cells, fold increase; maximum fold increase; hit rate 0.005% among 220,000;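 active means peak rise of 1.5-fold or more in the series; tested in PC3 cells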;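 further: first round at 10 µM; read as green reporter fluorescence; hits show the peak of a series up to 25 µM; 1 = signal of infected wells without compound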
GALR2 ag – GALR2 (human) receptor agonism | GALR2-expressing cells, agonist activation read-out | activation, %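 (tested at 5 µM)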 | hit rate 0.48% among 140,000 | AID 803;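 active means above mean plus 3 SD of all compounds, about 5% in these data, not always enough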;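 further: 0% = vehicle buffer wells and 100% = reference agonist at full effect; tested in CHO reporter cells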
Target sequence (O43603 whole entry, looked up): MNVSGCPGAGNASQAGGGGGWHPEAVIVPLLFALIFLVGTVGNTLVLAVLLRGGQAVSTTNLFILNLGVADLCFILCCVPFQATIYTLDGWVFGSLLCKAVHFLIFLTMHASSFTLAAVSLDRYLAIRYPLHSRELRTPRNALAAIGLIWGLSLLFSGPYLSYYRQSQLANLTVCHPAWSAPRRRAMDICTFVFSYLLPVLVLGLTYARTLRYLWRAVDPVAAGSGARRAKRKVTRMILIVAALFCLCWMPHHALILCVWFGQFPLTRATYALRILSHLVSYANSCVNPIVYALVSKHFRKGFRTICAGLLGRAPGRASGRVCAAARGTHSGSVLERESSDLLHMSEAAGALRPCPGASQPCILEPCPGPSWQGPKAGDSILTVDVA
PKD1 kinase inh – inhibitors of human PKD1 kinase; Q15139; PKD1 kinase fluorescence polarization assay; inhibition, %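 (about 10 µM by stock and volumes)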; hit rate 0.056% among 200,000;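 active means inhibition of 50% or more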;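 further: controls were vehicle for no effect and a reference inhibitor for full effect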
Insulin prom inh – TRM-6 insulin promoter activity inhibition. TRM-6 cells (human fetal islet line), insulin promoter-eGFP reporter, imaging; reporter expression induced with tamoxifen. inhibition, % at 2 µM. hit rate 0.9% among 130,000;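 active means inhibition above the mean plus 3 SD, with well images judged a real hit on visual review, cut at about 60% in these data, passing the limit was not always enough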
RGS16-Gao – regulators of human RGS16-Galphao interaction. O15492+P09471. bead-based flow cytometry RGS16-Galphao binding, fluorescence; actives lie on both sides. binding response (% of control), % at 10 µM. hit rate 0.38% among 220,000. AID 1441;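 active means below 25% or above 175%, edge rows of some plates excepted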;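 further: Galphao activated by GDP with aluminum fluoride before binding; 100% = wells without compound and 0% = beads without RGS; some results beyond the cut were filed as inactive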
Target sequence (O15492 whole entry, looked up): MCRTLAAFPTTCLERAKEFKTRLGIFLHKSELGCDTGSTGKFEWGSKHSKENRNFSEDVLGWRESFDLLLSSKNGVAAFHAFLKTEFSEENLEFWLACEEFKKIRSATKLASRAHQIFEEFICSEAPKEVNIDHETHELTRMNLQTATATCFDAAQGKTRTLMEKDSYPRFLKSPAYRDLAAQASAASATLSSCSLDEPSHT
Target sequence (P09471 whole entry, looked up): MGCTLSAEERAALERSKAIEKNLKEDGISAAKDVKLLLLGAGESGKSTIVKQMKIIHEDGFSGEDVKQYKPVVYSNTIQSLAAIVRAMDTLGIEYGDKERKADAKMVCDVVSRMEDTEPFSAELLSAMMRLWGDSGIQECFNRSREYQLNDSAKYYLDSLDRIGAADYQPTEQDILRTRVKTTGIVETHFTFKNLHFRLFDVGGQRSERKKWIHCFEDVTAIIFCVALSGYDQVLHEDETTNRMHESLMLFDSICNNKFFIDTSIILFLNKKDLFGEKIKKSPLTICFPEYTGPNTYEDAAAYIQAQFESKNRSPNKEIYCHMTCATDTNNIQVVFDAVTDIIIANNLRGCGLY
Insulin prom inh cell count – second read-out of Insulin prom inh, no call of its own (marks repeat the call); normalized cell count, %; measured here: cell count, toxicity; reference of the scale not given here;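 cells exposed to compound for 48 h; stained nuclei by imaging scaled within each plate; lower means fewer cells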
HSV replic up primary fold – second read-out of HSV replic up, no call of its own (marks repeat the call); fold increase; compound at 10 µM; measured here: primary screen fold increase 10 uM; tested in PC3 cells;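 GFP signal in the first replicate; 1 = infected wells without compound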
* = called active by the depositor; i = inactive; / = not tested or not shown. Compounds were not picked by outcome; about 1.1% have a hit in one of these screens.

SMILES	HSV replic up	HSV replic up primary fold	GALR2 ag	PKD1 kinase inh	Insulin prom inh	Insulin prom inh cell count	RGS16-Gao
Nc1ccc(C(=O)N/N=C\c2cc(N=Nc3cccc4ccccc34)ccc2O)cc1	i	0.69	-2.0	-8	0	119	97
O=C(CSc1nnc(-c2ccccc2Cl)o1)N1CCCCC1	i	0.76	-1.0	9	/	/	98
COc1ccc(CCN(Cc2nc3ccccc3c(=O)[nH]2)C(=O)c2ccco2)cc1OC	i	1	-0.7	-2	/	/	100
Cc1cccc(OCCCC(=O)Nc2ccccc2C(F)(F)F)c1	i	1	0.1	-14	12	110	110
CC1CCCCN1Cc1ccc(N(C)C)cc1 (centres undefined)	i	1.1	-2.5	1	-7	97	102
Cc1cc(C)c(C#N)c(SCc2[nH]nc3c2C(c2ccccc2)C(C#N)=C(N)O3)n1 (centres undefined)	i	1.1	-1.3	2	43	92	99
CC(Sc1nncs1)C(=O)NCc1ccc2c(c1)OCO2 (centres undefined)	i	0.77	-1.3	5	15	118	100
COc1cccc(-n2c(=O)c3c(C)c(C(=O)N(C)C)sc3n(CC(=O)NCCc3ccc(OC)c(OC)c3)c2=O)c1	i	0.96	/	3	-21	75	101
Cc1cc(NC(=O)c2cccc([N+](=O)[O-])c2)n(-c2ccccc2)n1	i	1	-1.4	-14	-12	91	87
Cc1ccccc1NC(=O)C(NC1CCCCC1)C(C)C (centres undefined)	i	1	/	-7	/	/	86
CSCC[C@H](NC(=O)Nc1ccc(OC(F)(F)F)cc1)C(=O)O	i	0.83	/	/	/	/	48
CCOc1ccccc1N1CCN(C(=O)c2cc(C)oc2C)CC1	i	1	-3.1	7	/	/	101
O=S(=O)(c1ccccc1)N1CCC2(CC1)OCCO2	i	1	/	3	/	/	96
N=C1C(c2nc3ccccc3[nH]2)=C(O)CN1NC(=O)c1c[nH]c2ccccc12	i	0.94	/	-1	14	86	96
CCCCC(C)n1[nH]c(=O)cc1N (centres undefined)	i	1.1	-2.8	-5	-3	164	106
Cc1nn(C)cc1CNC(=O)c1cccc(Cl)c1	i	1.1	-2.5	-9	27	76	99
COc1ccc(NC(=S)N(CCCN2CCCC2)Cc2ccco2)cc1	i	0.99	/	7	/	/	100
O=C(NCc1n[nH]c(=S)n1-c1ccc(Cl)c(Cl)c1)c1ccc(S(=O)(=O)N2CCOCC2)cc1	i	0.95	/	-16	14	120	97
CN(CC(=O)Nc1ccccc1N1CCOCC1)S(=O)(=O)c1ccc(Cl)cc1	i	1.2	-1.9	-3	65	50	101
CCOC(=O)c1c(C)c(C(=O)NCc2cccs2)c(C)n1CC	i	0.77	-1.2	-2	/	/	104
Cc1ccccc1OC1=NS(=O)(=O)c2ccccc21	i	1	/	0	/	/	103
Cc1ccc(Sc2nc3c(c(=O)[nH]c(=O)n3C)n2CCc2ccccc2)cc1	i	1.2	-2.5	-13	/	/	103
Cc1ccccc1Nc1ncc(C#N)c(N)n1	i	0.94	/	/	/	/	102
CCc1cc(-c2n[nH]c(C)c2-c2nc(C)cs2)c(O)cc1OC	i	0.99	/	-2	/	/	96
CCOC(=O)c1nn(-c2cccc(C)c2)c2nnc(Cc3ccc(C)cc3)c(=O)n12	i	0.9	0.1	0	-5	129	109
C(=N\n1cnnc1)/c1cccnc1	i	0.94	-0.6	-6	14	103	94
COc1ccc(NC(=O)COC(=O)Cc2ccc(Br)cc2)cc1	i	1.1	/	-6	/	/	102
CCN(CC)C(=O)C(=O)c1cccn1-c1ccc(C#N)cc1	i	1	/	-3	/	/	106
COc1ccc(CCN=c2c([N+](=O)[O-])nn(-c3cccc(C)c3)n2O)cc1OC	i	0.91	/	-2	/	/	104
CCOc1cc(C2NC(=O)NC(C)=C2C(=O)NCc2ccccc2)c(Cl)cc1O (centres undefined)	i	1	-1.9	-4	9	127	110
COC(=O)c1cc(OC)c(OCc2cc(C(=O)OC)oc2C)c(OC)c1	i	0.98	1.7	1	-37	142	95
C[N+](C)(C)C(Cc1c[nH]c2ccccc12)C(=O)[O-] (centres undefined)	i	1	/	/	/	/	109
c1ccc(CSc2nnc3c(n2)OC(c2ccco2)Nc2ccccc2-3)cc1 (centres undefined)	i	1.1	0.1	2	10	66	101
CCOC(=O)C1=C(C)NC2=C(C(=O)c3ccccc32)C1c1ccc(O)cc1 (centres undefined)	i	0.71	-1.0	-6	-50	89	99
Cc1sc(N)nc1C12CC3CC(CC(C3)C1)C2	i	1	/	-1	/	/	105
O=C(OC1CCN(c2ncc(C(F)(F)F)cc2Cl)CC1)c1ccc(Cl)cc1	i	0.89	-0.3	-2	/	/	102
COC(=O)C(Cc1c[nH]c2ccccc12)NC(=O)c1cc(-c2ccc(OC)c(OC)c2)oc1C (centres undefined)	i	0.95	0.9	-8	-24	117	96
Cc1ccc(C(=O)CN2C(=O)C(C)Oc3ccccc32)cc1 (centres undefined)	i	0.8	/	-9	-26	135	99
C#CCOCCOCCOCCNc1nc(N2CCN(C(=O)[C@H](CCCCN)n3cc(CCCC)nn3)CC2)nc(N2CCN(C(=O)[C@H](Cc3ccc(O)cc3)n3cc(CCO)nn3)CC2)n1	/	/	-0.8	6	-20	87	102
COc1ccccc1CC(=O)NCc1nn(-c2ccccc2)nc1C	i	0.91	/	/	/	/	108

Entries of single compounds, looked up by structure.
`COC(=O)c1cc(OC)c(OCc2cc(C(=O)OC)oc2C)c(OC)c1` in the list: HSV replic up = i; HSV replic up primary fold = 0.98; GALR2 ag = 1.7; PKD1 kinase inh = 1; Insulin prom inh = -37; Insulin prom inh cell count = 142; RGS16-Gao = 95
`O=C(OC1CCN(c2ncc(C(F)(F)F)cc2Cl)CC1)c1ccc(Cl)cc1` in the list: HSV replic up = i; HSV replic up primary fold = 0.89; GALR2 ag = -0.3; PKD1 kinase inh = -2; Insulin prom inh = /; Insulin prom inh cell count = /; RGS16-Gao = 102
`C[N+](C)(C)C(Cc1c[nH]c2ccccc12)C(=O)[O-]` (centres undefined) in the list: HSV replic up = i; HSV replic up primary fold = 1; GALR2 ag = /; PKD1 kinase inh = /; Insulin prom inh = /; Insulin prom inh cell count = /; RGS16-Gao = 109

New compounds follow
SMILES	HSV replic up	HSV replic up primary fold	GALR2 ag	PKD1 kinase inh	Insulin prom inh	Insulin prom inh cell count	RGS16-Gao
O=C(OCc1nc2ccccc2s1)c1ccc(Br)s1	i	0.89	-1.6	-15	62	117	100
CC(=O)NC1=NN(C(C)=O)C(C)(c2ccccn2)S1 (centres undefined)	i	0.99	/	-1	/	/	103
Cc1nnc(NC(=O)CSc2nccn2C)s1	i	1	0.2	3	30	108	100
Cc1nnc2c3ccccc3c(-c3ccccc3)nn12	i	0.94	2.4	-6	32	105	/
O=C(CCc1nc2ccccc2c(=O)[nH]1)Nc1ccc(Cl)c(Cl)c1	i	0.86	-0.9	2	7	84	9.1*
COc1ccc(C(=O)Nc2ccccc2C(=O)NC(Cc2ccc(O)cc2)C(=O)NNC(=O)c2ccccc2Cl)cc1 (centres undefined)	i	0.88	-0.7	-17	8	161	108
O=C(COc1ccc(Br)cc1Br)NC(=S)N1CCCc2ccccc21	i	0.76	-2.0	-1	-21	45	100
Clc1ccc(C2=CSC3=NCCN23)cc1Cl	i	0.91	-5.7	4	-3	104	-14*
COc1cc(/C=N/NC(N)=O)cc([N+](=O)[O-])c1O	i	0.97	/	-1	/	/	100
Cn1c(=O)c2c(ncn2C)n(C)c1=O	i	0.7	/	/	/	/	108
CCCN(CC1CC1)C(=O)CCc1nnc(C(OC)c2ccccc2)o1 (centres undefined)	i	0.96	/	9	/	/	106
CC(C)C(=O)NC(=S)Nc1ccc(S(=O)(=O)N2CCN(C)CC2)cc1	i	1.1	-0.8	-11	-19	70	99
O=C(O)CCc1nc(-c2ccccc2)c(-c2ccccc2)o1	i	0.8	/	/	/	/	104
CC(c1ccccc1)n1c(Cn2ncc3ccccc3c2=O)n[nH]c1=S (centres undefined)	i	0.89	/	-4	-24	135	93
Cn1c(Sc2ccc(C(=O)O)cc2[N+](=O)[O-])nnc1-c1ccccc1	i	0.82	/	-3	/	/	104
Cc1cc(N2CCN(C)CC2)nc(=S)[nH]1	i	0.92	/	-3	/	/	106
Cc1cc(OCC(=O)N2CCc3ccccc3C2)c2c(-c3ccccc3)cc(=O)oc2c1	i	0.94	-0.9	-2	-60	100	121
COC(=O)c1ccc(C2/C(=C(\O)c3ccc4c(c3)OCCO4)C(=O)C(=O)N2CCCN(C)C)cc1 (centres undefined)	i	1	0.7	-4	17	102	151
Nc1nn(-c2ccccc2Cl)cc1-c1nn[nH]n1	i	0.99	/	/	/	/	99
Cc1cc(C)n(-c2c(F)c(F)c(CN3CCOCC3)c(F)c2F)n1	i	0.97	-0.4	-4	/	/	104
CN(Cc1cccnc1)C(=O)c1cc(COc2ccc3ncccc3c2)on1	i	1.1	/	6	/	/	100
Cc1nccnc1Sc1ccccc1	i	1	/	/	/	/	100
CNC1=C(N(C(C)=O)c2ccc(Br)cc2)C(=O)c2ccccc2C1=O	i	0.47	-1.1	-12	/	/	89
N=c1n(CCO)c2ccccc2n1CCN1CCCCC1	i	0.88	/	-6	/	/	90
COc1cc(O)c(C(CCN2CCCCC2)c2ccc3c(c2)OCO3)c(OC)c1 (centres undefined)	i	0.9	/	/	/	/	105
Cc1ccc(C)c(OCCn2cc(/C=C(\C#N)C(=O)NCC3CCCO3)c3ccccc32)c1 (centres undefined)	i	0.97	0.3	-1	45	121	100
COC(=O)c1ccccc1NC(=O)c1cncc(Br)c1	i	0.85	-1.7	-5	-91	52	78
COc1ccc(/C=C(/NC(=O)c2ccccc2)C(=O)N/N=C/c2ccncc2)cc1	i	0.88	-0.3	5	21	148	97
COc1cccc(S(=O)(=O)Nc2cccnc2)c1	i	0.94	-1.9	-13	-67	78	100
O=C(O)CCC(=O)N1CCc2cc(S(=O)(=O)NC3CCCc4ccccc43)ccc21 (centres undefined)	i	0.98	-3.5	3	/	/	97
Cc1cccc(NCC(=O)c2c(N)n(C)c(=O)n(C)c2=O)c1C	i	1.1	/	4	/	/	88
CCC(C)[C@@H](N)C(=O)N/N=C/c1cccc2nccnc12 (some centres undefined)	i	0.97	/	/	/	/	98
CCCCn1c(=O)nc2n(-c3ccccc3)c3ccccc3cc-2c1=O	i	1	0.5	4	/	/	96
Cc1cc(=O)n2c(n1)NC(=NCc1ccccc1)NC2c1ccccc1 (centres undefined)	i	0.94	/	/	/	/	101
COC(=O)c1c(NC(=O)CN2CCN(c3ccccc3OC)CC2)c2cc(C)ccc2n1C	i	0.77	0.4	-1	-92	99	103
O=S(=O)(CC(O)COc1ccccc1Cl)c1ccccc1 (centres undefined)	i	1.1	-0.8	-10	-41	61	90
Cn1c(=O)c(=O)n(C)c2cc(S(=O)(=O)N3CCN(c4ccccc4F)CC3)ccc21	i	1.1	-1.2	-2	-117	52	96
O=C(CSc1ccccc1)Nc1ccc(S(=O)(=O)NCC2CCCO2)cc1 (centres undefined)	i	0.61	-1.9	2	18	46	102
O=C(Nc1nncs1)c1cccc(S(=O)(=O)N2CCOCC2)c1	i	1.1	7.0	0	-4	125	118
COC(=O)c1ccc(/C=N/NC(=O)CNc2cccc(C)c2)cc1	i	0.93	/	-5	39	59	100
COc1ccc(S(N)(=O)=O)cc1C(=O)N1CCCC1	i	0.94	/	-5	/	/	100
Cc1ccc(NC(=O)N2Cc3ccccc3CC2C(=O)NC(C)(C)C)cc1 (centres undefined)	i	0.93	0.2	-20	45	68	101
Cc1ccc(-c2noc(CSc3nnc(-c4ccccc4)n3C)n2)cc1	i	0.99	-1.9	4	8	66	96
CCCCCCn1c(N(CC)CC)nc2c1c(=O)[nH]c(=O)n2C	i	0.95	0.1	-7	50	134	93
NC(=O)c1nc(-c2ccco2)nc2c1[nH]c(=O)n2-c1ccc(Cl)c(Cl)c1	i	0.78	/	/	/	/	94
CN(CCC#N)S(=O)(=O)c1ccc2c(c1)c(=O)n(C)c(=O)n2C	i	1	0.7	4	-69	105	100
O=C(NCc1ccco1)C(c1cccnc1)N(C(=O)Cn1nnc2ccccc21)c1ccc(F)cc1 (centres undefined)	i	0.95	-3.0	3	-11	119	101
CC1=NNC(=O)C1CC(=O)N/N=C/c1cccs1 (centres undefined)	i	0.96	/	/	/	/	102

As entered above:
RGS16-Gao with NC(=O)c1nc(-c2ccco2)nc2c1[nH]c(=O)n2-c1ccc(Cl)c(Cl)c1 → 94
RGS16-Gao with CC1=NNC(=O)C1CC(=O)N/N=C/c1cccs1 (centres undefined) → 102
